CapD inh – inhibitors of Bacillus anthracis CapD enzyme; z-score (test concentration not listed); purified CapD enzyme, fluorescence intensity read-out; active compounds read low; some hits fall short of the stated cut; AID 492967; 140,000 tested, 0.23% active;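 active = z-score under -4 in either of two replicates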;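 note: stock transfer was 100 nL into about 40 µL; score is relative to mean and spread of the plate; one replicate is shown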
AID504770 – growth inhibitors of E. coli YBA685 in a screen for V. cholerae RctB (chromosome II replication) inhibitors | z-score (test concentration not listed) | 130,000 tested, 0.27% active | AID 504770 | E. coli YBA685 rctB-dependent plasmid, OD600 growth, 3 h; active compounds read low;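 active = z-score under -2 on both plates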;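 note: wells of about 30 µL received 100 nL stock; score is relative to mean and SD of the test wells; the first replicate is given; strong numbers were not always called active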
Starred values were filed as active, the others as inactive; . = not tested or not shown. Compounds were not picked by outcome, and some 0.39% of all compounds hit somewhere here.

Structure | CapD inh | AID504770
CCCn1c(SCC(=O)N2N=C(c3ccccc3)CC2c2ccc(OC)cc2)n[nH]c1=O (stereo not given) | . | 0.45
CCOc1ccccc1CNC(=O)c1ccc2c(c1)ncn2C1CCCC1 | -0.49 | 1.4
Cc1nn(-c2ccccc2)cc1/C=N/n1c(-c2ccncc2)n[nH]c1=S | -1.7 | -0.45
O=C(CNC(=O)c1ccccc1F)OCc1ccccc1 | -0.46 | -1.2
COc1ccccc1/C=C1/SC(=O)N(CCN=C2NS(=O)(=O)c3ccccc32)C1=O | -0.21 | .
COC(=O)c1cc(C)nc2c1c(C)nn2-c1ccccc1Cl | 3.1 | -0.35
CCOC(=O)c1sc(=NC(C)=O)n(C)c1C | . | 1.4
C=CCN1CCN(C(=O)c2ccc(Br)cc2)CC1 | 0.32 | 2.1
CNC(=O)CN(c1ccc(Cl)cc1Cl)S(C)(=O)=O | 0.55 | 1.4
O=C1c2ccccc2C2=Nc3ccccc3OC12O (stereo not given) | -0.79 | -0.55
Clc1ccc(-c2ccc(-c3nn4c(Cc5ccccc5)nnc4s3)o2)cc1 | 67 | 0.25
O=C(NCC(c1cccs1)N1CCOCC1)C(F)(F)F (stereo not given) | -0.17 | -0.65
CC(C)CN1C(=O)N(c2ccccc2)C(n2oc(=O)n(-c3ccccc3)c2=O)C1(C)C (stereo not given) | 0.46 | -0.1
CC(=O)Oc1ccc2ccc3ccc(OC(C)=O)c4ccc1c2c34 | -2.3 | 0.6
O=C(CS(=O)(=O)c1cn(Cc2ccc(Cl)cc2)c2ccccc12)Nc1nccs1 | -0.55 | 2
CC1CN(C(=O)c2cccc(Cl)c2)CC(C)O1 (stereo not given) | -0.25 | -0.05
CCN(CC)c1ccc(/C=C2/C(=O)N=C(N)N2C)cc1 | 0.58 | 0.1
COC(=O)c1sc(NC(=O)c2cc(-c3ccccc3)nc3ccccc23)c(C(N)=O)c1C | 0.22 | .
Cc1cc(C=C(C#N)C#N)c(C)n1-c1ccc(N2CCOCC2)cc1 | . | -1
O=C(CNC1CCCCC1)N1c2ccccc2Sc2ccc(Cl)cc21 | -0.14 | .
Cc1ccc(Nc2ccccc2N)cc1 | 5.1 | -0.8
O=C(Nc1c(-c2ccccc2)nc2ccccn12)c1cccnc1 | -0.15 | .
Cc1ccc(N2C(=O)C3C4C=CC(CC4)C3C2=O)c(Br)c1 (stereo not given) | 0.32 | .
C=CCSC1=C(C#N)C(c2ccc(C(C)C)cc2)CC(=O)N1 (stereo not given) | 0.015 | -0.55
CCN1CCCC1CNC(=O)c1cc2ccc3cccnc3c2[nH]1 (stereo not given) | -0.13 | 0.55
CCCn1c(-c2ccc(N(C)C)cc2)nc2ccccc21 | 63 | -0.75
COc1ccc(OCC(=O)Nn2c(=S)[nH]c3ncccc3c2=O)cc1 | -0.38 | 1.8
O=S1(=O)CC(O)C(N2CCCCC2)C1 (stereo not given) | 0.3 | -0.1
CC(C)(C)S(=O)(=O)CCC#N | -0.61 | -0.6
CN(C)c1ccc(NC(=O)CC2Sc3ccccc3NC2=O)cc1 (stereo not given) | -1.5 | 0.45

In the list so far, two have fluorine:
Structure | CapD inh | AID504770
O=C(CNC(=O)c1ccccc1F)OCc1ccccc1 | -0.46 | -1.2
O=C(NCC(c1cccs1)N1CCOCC1)C(F)(F)F (stereo not given) | -0.17 | -0.65

(list continues)
Structure | CapD inh | AID504770
Cc1ccccc1NC(=O)COC(=O)c1ccc2c(c1)C(=O)N(CCCN1CCOCC1)C2=O | . | -0.4
COC(=O)CSc1nnc(CNC(=O)c2ccc(S(=O)(=O)N3CCCCC3)cc2)n1C | 11 | -0.3
O=c1ccc(=O)n(CN2CCN(Cc3ccccc3)CC2)[nH]1 | -0.3 | -1.3
O=C1c2[nH]nc(-c3ccccc3)c2C(c2cccc([N+](=O)[O-])c2)N1c1ccccc1 (stereo not given) | -0.3 | .
CC1=Nc2nc(N3CCCCC3)c(C#N)c3c4c(nc(c23)N1)N(c1ccc(C)cc1)C(=O)C4 | . | 0.2
COc1ccc2c(c1OC)C(=O)N1c3ccccc3COC21 (stereo not given) | -0.14 | -0.1
O=C(Cc1ccccc1)Nc1ccc(N2CCOCC2)cc1 | 0.49 | -0.15
CC(C)Cn1c(SCC(=O)c2ccc3[nH]c(=O)[nH]c3c2)nc2ccccc21 | . | 0.2
Cc1ccc(N=C2NC(=O)/C(=C\c3cccs3)S2)c(C)c1 | 0.05 | 0.5
O=C1CCCc2[nH]c(=O)cc(C(F)(F)F)c21 | -0.07 | -0.65
O=C1NC(=O)C(=Cc2ccc(OCc3ccc([N+](=O)[O-])cc3)c(Br)c2)C(=O)N1 | -0.51 | .
O=C(O/N=C1\CCS(=O)(=O)c2sccc21)c1c(F)cccc1F | 0.57 | .
Cc1cc2nn(-c3ccccc3)nc2cc1NC(=O)c1ccccc1 | -0.29 | -0.85
Cc1c(C=Nc2ccc(SC#N)c(Cl)c2)c(O)[nH]c(=O)c1C#N | . | -0.15
Cc1cc2occ(CC(=O)Nc3ccc(S(=O)(=O)N4CCOCC4)cc3)c2cc1C(C)C | . | -0.5
Cn1nc(C(=O)N(Cc2ccco2)Cc2cccs2)ccc1=O | . | -0.8
CCCCc1c(C)nc2ccc(Br)cc2c1SCCC(=O)O | -0.47 | -0.1
Cc1nnn(C23CC4CC(CC(C(=O)Nc5ccc(Br)cc5)(C4)C2)C3)n1 | -0.76 | 2.1
Cc1cc(C)c2c3c1C1C=CCC1CN3C(C(=O)O)C1CC=CC21 (stereo not given) | -0.27 | 1.4
Cc1ccc(S(=O)(=O)N2CCC(C(c3ccccc3)c3ccccc3)CC2)cc1 | -0.62 | .
COC(=O)c1scc(C)c1NC(=S)OC | -0.085 | 0.15
COc1cccc(/C=N/NC(=O)COc2ccc(Cl)cc2C)c1[N+](=O)[O-] | -0.23 | .
c1ccc(-c2nc3ccccc3nc2-c2ccc(-c3nc4ccccc4nc3-c3ccccc3)cc2)cc1 | 0.33 | .
CC(C)(C)NC(=O)N1c2ccccc2Sc2ccccc21 | -0.39 | -0.45
COc1ccc(NC(=O)CN(C)C(=O)c2oc3ccccc3c2C)cc1 | . | 1.5
N#CC(=C1SCCCS1)S(=O)(=O)c1ccc(Cl)cc1 | -0.59 | 0
Cn1c(=Nc2cccc(O)c2)ccc2ccccc21 | -0.69 | 0.95
O=S(=O)(NCc1ccc(-c2cccs2)cc1)c1cccs1 | 5.2 | 0.6
C=CCN(CC=C)Cc1c[nH]c2ccccc12 | -0.74 | -0.55
CCOC(=O)N1CCC(NS(=O)(=O)c2ccc(Cl)s2)CC1 | 1.2 | 0.4

Random excerpt: six entries already listed
Structure | CapD inh | AID504770
COc1ccc(NC(=O)CN(C)C(=O)c2oc3ccccc3c2C)cc1 | . | 1.5
Cc1c(C=Nc2ccc(SC#N)c(Cl)c2)c(O)[nH]c(=O)c1C#N | . | -0.15
Cc1cc(C)c2c3c1C1C=CCC1CN3C(C(=O)O)C1CC=CC21 (stereo not given) | -0.27 | 1.4
CC1=Nc2nc(N3CCCCC3)c(C#N)c3c4c(nc(c23)N1)N(c1ccc(C)cc1)C(=O)C4 | . | 0.2
Cc1cc2nn(-c3ccccc3)nc2cc1NC(=O)c1ccccc1 | -0.29 | -0.85
O=C(O/N=C1\CCS(=O)(=O)c2sccc21)c1c(F)cccc1F | 0.57 | .

(further entries)
Structure | CapD inh | AID504770
Cn1nc(-c2ccc(Cl)cc2)c2cc(C(=O)NCc3ccco3)sc21 | 20 | 0.3
COc1ccc(-c2nc(C=C3C(=O)c4ccccc4C3=O)c3ccccn23)cc1 | -0.35 | 0
O=C(CCCc1ccccc1)Nc1cccc(C(=O)O)c1 | 0.68 | -0.85
CN(C(=O)CSc1cccc[n+]1[O-])c1ccccc1 | . | -0.1
O=C(CCC1CCCCC1)Nc1nccs1 | . | -0.5
CCN(c1cccc(C)c1)c1ccccc1C | 0.2 | 0.25
CC(C(=O)N1CCCCC1)n1ncn2cccc2c1=O (stereo not given) | 0.32 | 0.15
O=C(CSc1nc2ccccc2[nH]1)Nc1ccccc1 | 0.64 | -1.1
OC(CSc1nncn1-c1ccccc1)C(F)(F)F (stereo not given) | -0.52 | -0.15
Cc1csc2nc(CNC(=O)C3CCCCC3)cn12 | 0.03 | 1
COC(=O)c1nn(-c2ccc(Cl)cc2)c(=O)cc1Sc1ccccn1 | -0.7 | .
CC1(NS(C)(=O)=O)CC=CC1 | . | 2.2
Cc1ccc(S(N)(=O)=O)cc1F | 0.34 | 0.05
Brc1ccc(Nc2ncnc3ccccc23)cc1 | 2.5 | 1
COc1ccc(NC(=O)c2oc3ccc(S(=O)(=O)N(C)C4CCCCC4)cc3c2C)c(OC)c1 | -0.085 | -0.55
CSC1=NC(=Nc2cccc(C)c2)C2(CCCC2)N1c1ccccc1 | 5.8 | .
CC12CCC3C(CC4OCC35CCC(O)C[C@]45Br)C1CCC2OC(=O)c1ccccc1 (stereo not given in full) | -0.075 | .
Cc1cc(C(=O)N/N=C\c2ccccc2)n[nH]1 | 0.26 | 0.1
O=C(Nc1cccc(Cl)c1)C1=CC(=O)N2CCN=C2S1 | . | -0.1
O=C(Nc1nnc(CCCCc2nnc(NC(=O)c3ccco3)s2)s1)c1ccco1 | -0.92 | .
Cc1ccc(C(=O)CSc2ccc(C(F)(F)F)cn2)cc1 | -0.58 | 0.8
O=C(CC12CC3CC(CC(C3)C1)C2)NCC(=O)N1CCN(Cc2ccccc2)CC1 | 0.5 | 0.15
O=C(NN1S(=O)(=O)c2ccccc2S1(=O)=O)C12CC3CC(CC(C3)C1)C2 | 0.16 | .
Cc1nc(N2CCOCC2)sc1C(=O)c1ccc(Cl)c(S(=O)(=O)N2CCOCC2)c1 | . | 0.1
O=C(NNC(=O)C(Cc1ccccc1)NC(=O)OCCc1cccc(Cl)c1)OCc1ccccc1 (stereo not given) | 0.2 | .
Cc1cccc(C)c1N1CCN(S(=O)(=O)N2CCCCC2)CC1 | -0.39 | -0.85
CCOC(=O)c1ccc(NC(=S)NCc2cccnc2)cc1 | -0.49 | .
O=S(=O)(NCc1nc(-c2ccc(C(F)(F)F)cc2)no1)c1cccs1 | 1 | 0
C#CC(CC)(CC)NC(=O)NC1CCCCC1 | -0.07 | 0.55
OCc1cn(-c2ccccc2)nc1-c1ccc2c(c1)OCCO2 | . | -1.1
CCOC(=O)C(C#N)C1(c2c(C)[nH]n(-c3ccccc3)c2=O)C(=O)N(c2ccccc2)N=C1C (stereo not given) | 0.095 | 0.25
COc1ccc(C(=O)COc2nc(-c3cccs3)cc(C(F)(F)F)c2C#N)cc1 | 77 | .
C(=N\n1cnnc1)/c1cccc2ccccc12 | -0.73 | 0.95
O=C(CS(=O)(=O)c1ccc(Cl)c(Cl)c1)Nc1ccccc1Cl | 0.1 | .
O=C(COCc1cc(-c2ccc3c(c2)OCO3)on1)NC1CCCc2ccccc21 (stereo not given) | 0.95 | -1.5
C/[N+]([O-])=C/c1ccccc1 | 0.025 | -0.6
O=C1c2ccccc2NC2(C(=O)N(Cc3ccccc3F)c3ccccc32)N1c1ccccc1 (stereo not given) | -0.055 | .
COc1ccc2c(CC(=O)OCc3cc(Cl)c4c(c3)OCCCO4)coc2c1 | . | -0.55
c1ccc2sc(NC3=NCN(Cc4ccc5c(c4)OCO5)CN3)nc2c1 | 0.19 | -0.2
COc1cc(SC)ccc1C(=O)NCC1CCCCC1 | . | -0.85
c1nc(N2CCCC2)c2nc3n(c2n1)CCCCC3 | -0.46 | -0.75
CN(C)c1ccc(CNC(=O)C(NS(=O)(=O)c2ccc3c(c2)CCC(=O)N3)c2ccccc2)cc1 (stereo not given) | -0.34 | -0.35
COc1ccccc1-c1nn2c(Cn3cnc4ccccc43)nnc2s1 | 64 | 0.6
CCS(=O)(=O)N1CCCC(C(=O)N2CCC3(CC2)OCCO3)C1 (stereo not given) | -1.2 | 1.6
O=C(CCS(=O)(=O)c1cccs1)Nc1ccc(C(=O)NCc2cccs2)cc1 | 0.17 | -2.2
O=C(NCCN1CCOCC1)c1cc2nc(-c3ccc(Cl)c(Cl)c3)cc(C(F)(F)F)n2n1 | -0.1 | .
C=CCn1c(C)nc2c(cnn2-c2ccccc2)c1=O | 0.97 | -0.4
COc1ccc(Br)cc1S(=O)(=O)NCc1ccccn1 | 0.04 | -0.45
CCOCCCNc1ncnc2c1cnn2-c1ccc(F)cc1 | -0.26 | -1.3
COc1ccc(C2CC(c3cccs3)Nc3nc4ccccc4n32)cc1 (stereo not given) | . | 1.9
CCn1cc(C(=O)O)c(=O)c2cc(S(=O)(=O)N(C)C3CCCCC3)ccc21 | 4.4 | 0.1
CCc1ccc(/C=C2\CN(C)C/C(=C\c3ccc(CC)cc3)C2O)cc1 | -0.48 | -0.1
NC(=O)c1c(NC(=O)c2ccc3c(c2)S(=O)(=O)N=C2CCCCCN23)sc2c1CCC2 | . | 0.2
Cc1ccc(/C=C(\NC(=O)c2ccc(C)cc2)C(=O)NCc2ccncc2)cc1 | 0.6 | -0.7
COc1ccc(CN2CCN(CCOC(=O)N3CCN(c4ccc(C(F)(F)F)cc4)CC3)CC2)cc1F | 0.39 | .
CCOc1ccccc1C(=O)Nc1ccc(Cl)cc1 | -0.39 | -0.5
COCc1cc(=O)n2[nH]cc(-c3ccc(Cl)cc3)c2n1 | 36 | -0.3
Cc1ccc(C)c(NC2=NC3CS(=O)(=O)CC3S2)c1 (stereo not given) | 0.22 | -0.95
CC1CCC2C(=O)N(c3cc(Cl)ccc3O)C(=O)C2C1 (stereo not given) | -0.51 | .
CCOc1cc(/C=C2/C(=O)N(c3ccccc3)N=C2C)ccc1OS(=O)(=O)c1ccccc1 | 0.21 | .
CCc1ccccc1NC(=O)C1CCCN(c2ncnc3c2nc2n3CCCCC2)C1 (stereo not given) | 0.67 | 2.3
Nc1ccc(S(=O)(=O)C(F)(F)F)cc1N | . | -0.2
COC(=O)Cc1nc(N2CCN(c3ccc([N+](=O)[O-])cc3)CC2)c2c(C)c(C)sc2n1 | -0.4 | .

Screening data (PubChem)
